LANA-H2B inh: blocks KSHV LANA binding to histone H2A/H2B | cell-free LANA-H2A/H2B peptide, fluorescence polarization | 320,000 compounds, 0.6% hits | inhibition, % (concentration not given with the values); in the data active means inhibition mostly above about 10%, no sharp cut-off; inactive means mostly below about 6.7%;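 further: stock transfer was 7.5 nL into about 10 µL; 0% = median of vehicle wells and 100% = median of positive control wells; one replicate is shown; the record names a cut of 25% in any replicate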
Beta cell apopt: blocks beta cell apoptosis; protection from apoptosis, % (no concentration beside the values); 300,000 compounds, 0.8% hits; INS-1E cytokine-induced death, ATP luminescence, 48 h; percent of positive-control rescue, neutral wells zero; AID 435005;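 active means all replicates at 75% or more, or half of them and the mean; inconclusive means half reach 75% but not the mean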;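 further: 0% = cytokine-treated negative control wells and 100% = positive control rescue; higher means more ATP so stronger rescue from cytokine killing; wells of about 40 µL received 100 nL stock; the first replicate is given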
UCH37 inh: blocks the human deubiquitinase UCH37; purified proteasome/UCH37, Ub-AMC cleavage fluorescence; inhibition, % (no concentration beside the values); AID 588478; Q9Y5K5; 330,000 compounds, 0.33% hits;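 active means mean of two replicates above 20%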;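 further: 0% = compound-free wells with enzyme and 100% = wells lacking proteasome; stock transfer was 100 nL into about 20 µL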
Target sequence (Q9Y5K5 whole entry, looked up): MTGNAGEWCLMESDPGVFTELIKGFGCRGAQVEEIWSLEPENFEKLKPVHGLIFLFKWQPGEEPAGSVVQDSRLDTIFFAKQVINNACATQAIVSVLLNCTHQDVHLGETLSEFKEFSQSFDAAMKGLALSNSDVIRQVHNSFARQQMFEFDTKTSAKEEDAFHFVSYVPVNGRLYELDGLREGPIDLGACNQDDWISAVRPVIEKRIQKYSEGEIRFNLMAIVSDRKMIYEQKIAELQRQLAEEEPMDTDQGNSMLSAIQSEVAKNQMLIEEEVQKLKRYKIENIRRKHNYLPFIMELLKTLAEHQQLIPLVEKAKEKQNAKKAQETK
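Material: Human UCH37 enzyme supplied as purified proteasome complex | Schedule: 30 min preincubation with enzyme, 25 min cleavage at room temperature | Detection: AMC fluorescence 355/460 nm | Measure: % inhibition of Ub-AMC cleavage fluorescence | Controls: Wells without proteasome as full block, compound-free enzyme plus substrate as uninhibited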
A1 inh: inhibitors of the anti-apoptotic protein A1, read as caspase activation | caspase activation, % (test concentration not listed) | AID 2462 | 330,000 compounds, 0.066% hits | MEF A1-2A-BIM cells, Caspase-Glo 3/7 luminescence, 3 h; percent of clofoctol response, vehicle zero;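 active means over half of replicate activation scores above 10%, or exactly half above 10 with the replicate mean above 10; inconclusive means replicate mean below 10 yet half the replicates above 10; inactive means over half of replicates below 10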;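 further: wells of about 30 µL received 50 nL stock; many hits fall short of the cut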
Beta2AR agonist: human beta-2 adrenergic receptor agonism by FAP | P07550 | Am2.2-beta2AR cells, FAP receptor internalization, flow cytometry; reference of the scale not given here | response, % (test concentration not listed) | 340,000 compounds, 0.43% hits | AID 504454;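 active means response above a set limit, near 3 SD of response in nonfluorescent compounds, cut at about 42% in these data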;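 further: stock transfer was 100 nL into about 11 µL; a reference agonist was the positive control; negative values mostly stem from fluorescent compounds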
Target sequence (P07550 whole entry, looked up): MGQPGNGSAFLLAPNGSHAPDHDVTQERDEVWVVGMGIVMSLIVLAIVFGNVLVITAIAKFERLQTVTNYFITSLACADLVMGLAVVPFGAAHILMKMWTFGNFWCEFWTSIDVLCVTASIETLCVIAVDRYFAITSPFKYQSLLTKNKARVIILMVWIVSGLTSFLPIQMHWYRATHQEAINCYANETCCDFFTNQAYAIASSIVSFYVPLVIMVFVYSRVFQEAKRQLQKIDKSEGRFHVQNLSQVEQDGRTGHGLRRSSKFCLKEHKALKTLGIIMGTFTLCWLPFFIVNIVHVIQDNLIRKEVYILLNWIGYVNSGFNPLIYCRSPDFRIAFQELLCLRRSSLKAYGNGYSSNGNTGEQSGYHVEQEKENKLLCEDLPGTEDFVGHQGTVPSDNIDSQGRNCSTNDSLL
RanGTP-Impb inh: disruptors of Ran-importin-beta complex formation – biochemical, FRET, CFP-Ran, YFP-importin-beta, homogeneous, primary screen. AID 2216. 300,000 compounds, 1.1% hits. inhibition, % (concentration not given with the values). cell-free CFP-Ran/YFP-importin-beta FRET ratio;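 active means most replicates above 15%; inconclusive means exactly half above 15%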;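 further: 0% = DMSO wells and 100% = Ran loaded with GDP instead of GTP; wells of about 40 µL received 100 nL stock; the first replicate is given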
T cruzi repl: blocks replication of Trypanosoma cruzi; T. cruzi beta-gal in NIH3T3, luminescence, 90 h; inhibition, % (test concentration not listed); 300,000 compounds, 1.4% hits;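 active means mean inhibition across valid replicates above about 55%, limit read from the data; inconclusive means mean below that limit but half or more replicates reach it; inactive means mean below it, under half of replicates reach it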;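 further: signal also drops with host cell toxicity which is not excluded here; 0% = plate median of DMSO wells and 100% = zero luminescence signal; higher percent means less beta-gal luminescence so fewer parasites; stock transfer was 50 nL into about 50 µL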
Calb FLC: C. albicans growth modulation with fluconazole; AID 1979; 300,000 compounds, 0.57% hits; growth inhibition, % (test concentration not listed); C. albicans CaCi-2 (fluconazole-resistant clinical isolate) + fluconazole, Alamar Blue growth, 48 h;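 active means most replicates above 75%; inconclusive means exactly half above 75%; inactive means most below 75%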;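 further: all wells also contain fluconazole at 8 µg/ml as a sub-toxic cotreatment; 0% = median of DMSO wells and 100% = median of geldanamycin control wells; wells of about 8 µL received 7.5 nL stock; the first replicate is given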
Active calls of the source: *; i = inactive; ? = inconclusive; nt = no result given. Outcome played no part in choosing rows (roughly 4.3% active in at least one column).

SMILES | LANA-H2B inh | Beta cell apopt | UCH37 inh | A1 inh | Beta2AR agonist | RanGTP-Impb inh | T cruzi repl | Calb FLC
O=C(CNC(=O)c1ccccc1Cl)NCCc1cccs1 | 9.1 | 2 | -0.4 | 1.6 | 13 | nt | nt | nt
CC(C)(C)c1nc(S(=O)(=O)c2ccc(Cl)cc2)c(N2CCOCC2)o1 | -0.8 | -4 | 2.9 | -1.0 | -5 | 2.4 | 8 | 27
CSc1nc(=NC(C)=O)ss1 | -0.6 | -6 | 2.1 | 0.2 | -2 | 2.1 | -4 | -7
COc1ccccc1C(C)NC(=O)Cc1ccsc1 (stereo not given) | -1.8 | -5 | 2.4 | 0.4 | 4 | -0.2 | -6 | -4
COc1ccc2cc(CN(Cc3cccs3)Cc3nnnn3Cc3ccccc3)c(=O)[nH]c2c1 | -2.1 | 2 | -3.0 | -0.2 | -11 | 7.4 | 31 | 23
COc1cccc(-c2nnc(SCc3nc4ccccc4[nH]3)n2N)c1 | -2.0 | 5 | -4.1 | -0.3 | -3 | 6.9 | -8 | -14
Cn1c(N)c(C(=O)COC(=O)/C=C/c2ccccc2Cl)c(=O)n(C)c1=O | i | -2 | -3.4 | 0.1 | 2 | nt | nt | nt
CCNC(=O)NC(=O)C(C)N1C(=O)NC(c2ccccc2)(c2ccccc2)C1=O (stereo not given) | 1.5 | -2 | 1.8 | 0.2 | 2 | 2.1 | -2 | -8
COC(=O)c1cn(-c2ccccc2)nc1-c1cccnc1 | -13 | -2 | 3.9 | -0.9 | -12 | 3.4 | -7 | 5
CSc1ccccc1NC(=O)c1ccc2c(c1)CCN2S(C)(=O)=O | 1.3 | -4 | 4.4 | 1.0 | 3 | 5.3 | -10 | 2
CCOCCCNC(c1ccccc1)c1ccncc1 (stereo not given) | 2.0 | nt | 4.6 | 0.3 | -4 | -1.8 | -1 | -1
C/C(=N\Nc1nc(-c2ccc(C)cc2C)cs1)c1cc2ccccc2oc1=O | 2.6 | 3 | nt | 0.4 | 0 | -1.2 | 9 | -1
COc1cc(OC)c(OC)cc1/C=C1\CC(C)C/C(=C\c2cc(OC)c(OC)cc2OC)C1=O (stereo not given) | -1.6 | 14 | 1.6 | -0.1 | 6 | -65 | 59* | 2
O=C(CSc1nc(=O)n2cc(Cl)ccc2n1)NCCc1ccccc1 | 1.2 | 0 | -1.5 | -0.6 | 0 | -3.6 | -8 | -3
Clc1cc(/C=N\NC2=NCCN2)cc(Cl)n1 | -2.7 | -7 | nt | 0.2 | 16 | 2.3 | 70* | 9
O=C(CS(=O)(=O)Cc1ccccc1)Nc1ccc(Cl)cn1 | 1.5 | 2 | -0.1 | -0.6 | 4 | 3.6 | -2 | -4
CCOc1ccc(CNc2nnnn2C)cc1 | -2.1 | nt | 2.4 | 1.4 | -3 | 1.1 | 6 | 0
Cc1oc(-c2cccc(Cl)c2)nc1CN1CCCC(C(=O)NCc2ccco2)C1 (stereo not given) | 0.5 | 7 | 0.9 | 0.0 | -14 | -3.2 | 32 | -36
CCc1ccc(C(=O)Nc2cc(C)ccc2F)s1 | -0.5 | 0 | 2.6 | -4.7 | 0 | 2.1 | -17 | -1
CCCN1C2CCCC1CC(NC(=O)c1ccc(Br)cc1)C2 (stereo not given) | 4.0 | 0 | 0.6 | -1.4 | -1 | -0.1 | -1 | 14
COc1ccc(CCNC(=O)CSc2nc3ccccc3c3nc(CCN4CCCCC4)nn23)cc1OC | 0.3 | -2 | 1.0 | -0.5 | 12 | 2.1 | 4 | -12
CCOC(=O)c1c(S(=O)(=O)NCCc2ccco2)c(C)n(C)c1C | 2.9 | nt | 4.1 | 0.8 | -3 | 6.8 | 4 | -3
Cc1nc2ccc(S(=O)(=O)NCC(=O)N3CCN(c4ccccn4)CC3)cc2s1 | -0.2 | -6 | 1.3 | 0.2 | -8 | -0.5 | -1 | 18
Cc1ccc(S(=O)(=O)N2CCN(CC(=O)N/N=C\c3ccc(Cl)c([N+](=O)[O-])c3)CC2)cc1 | 3.3 | -7 | nt | 1.5 | 5 | 1.6 | -6 | 3
Cc1ccc(S(=O)(=O)N2CCC(C(=O)NNC(=O)c3cccnc3)CC2)cc1 | 0.0 | -4 | 2.7 | -0.9 | 4 | 1.1 | 0 | 0
CC(=O)c1sc(N)c(C(=O)OC(C)C)c1C | -3.1 | -10 | 5.8 | -0.1 | -9 | -1.3 | 7 | -3
CC(C)OCCCNC(=O)Cc1ccc(Br)cc1 | 8.3 | nt | 2.6 | 0.9 | 6 | 7.5 | -7 | 11
COc1cccc(N2CCN(c3ccc4nnc(CCC(=O)Nc5ccc(OC)c(OC)c5)n4n3)CC2)c1 | 0.4 | 1 | 1.7 | 0.4 | 3 | 0.6 | -5 | 0
Clc1ccccc1Cc1noc(CN2CCCCC2c2ccccn2)n1 (stereo not given) | -1.2 | -1 | 1.5 | 0.0 | 3 | -3.9 | 4 | -12
Clc1ccc(-c2nnc(CSc3nnc(-c4cccs4)o3)o2)cc1 | 0.8 | -3 | 4.8 | 0.8 | 2 | -1.2 | -6 | -8
O=C(NCC1CC1)c1ccc2c(c1)S(=O)(=O)c1cc(Cl)ccc1C2=O | 0.3 | -4 | 0.7 | -0.2 | -10 | nt | nt | nt
CN(CC(=O)Nc1cccc(F)c1)CC(=O)Nc1ccc(Cl)cc1[N+](=O)[O-] | 1.4 | -5 | 2.6 | 0.5 | -61 | 9.6 | -10 | -1
Cc1c(N(C)C)nc2ccccc2c1N | -4.4 | 1 | 6.8 | 0.6 | 8 | 2.9 | 1 | -18
COc1ccc(C(OCC(O)CN(C)C2CCCCC2)c2ccc(OC)cc2)cc1 (stereo not given) | -0.3 | -9 | 4.1 | 0.1 | 6 | 1.8 | 15 | 11
COc1cc(S(=O)(=O)N(Cc2ccco2)C2CCCC2)ccc1-n1cnnn1 | -0.9 | 3 | 5.8 | 0.8 | -2 | 1.6 | 9 | 2
COc1cc(-c2n[nH]c(=S)n2C(C)c2ccccc2)cc(OC)c1OC (stereo not given) | -3.4 | 2 | 2.9 | 0.1 | -4 | 3.2 | 1 | 23
COc1ccc(CCC(=O)NCCS(=O)(=O)N2CCN(c3ccccc3OC)CC2)cc1 | -3.1 | 0 | 1.5 | -0.2 | 15 | 4.9 | 15 | -7
CCCNC(=O)C1CC(c2ccccc2C(F)(F)F)=NO1 (stereo not given) | 1.6 | -3 | -0.7 | 0.3 | -1 | 0.1 | -7 | 10
CC(C)c1ccc(NC2CCCN(C(=O)c3ccccc3-c3ncc[nH]3)C2)cc1 (stereo not given) | -1.0 | -1 | 2.5 | -0.7 | 2 | 3.0 | 14 | -26
COc1ccc(-c2nc(C#N)c(NCCc3ccccc3)o2)cc1OC | -3.7 | 9 | -12 | -6.5 | 4 | -3.0 | 4 | 9
O=C(NCCCCc1ccccc1)C1CCCC1 | -0.2 | nt | 3.1 | 1.5 | 0 | -1.3 | 12 | -2
COc1ccc2[nH]c(=O)c(CN(C(=O)c3cccnc3)c3cc(C)ccc3C)cc2c1 | 3.4 | -4 | -38 | 0.4 | -5 | 4.1 | 4 | 1
CCOC(=O)c1c(O)cc(C)cc1Nc1ccccc1 | 2.9 | 0 | -3.7 | 1.9 | -44 | 7.2 | 12 | 0
COc1ccc(S(=O)(=O)CC(O)CN2CCCC2=O)cc1 (stereo not given) | -0.5 | -3 | 1.2 | 0.0 | -3 | 2.8 | -3 | 14
Nc1nonc1-n1nnc(C(=O)N/N=C/c2ccncc2)c1CSc1ccccc1 | 1.1 | 1 | nt | 2.8 | -2 | 2.3 | 3 | -11
Cc1sc2nc(CN(C(=O)NCc3ccccc3)C3CCCC3)[nH]c(=O)c2c1C | -0.2 | 3 | -1.1 | 1.3 | 6 | -2.1 | 5 | -4
O=c1ccn(CCc2c[nH]c3ccccc23)c2c1CCCC2 | 1.8 | -20 | -1.5 | 0.0 | 1 | 0.4 | 8 | -18
COc1ccc2ccc3c(c2c1)N=CC1(O3)N(C)c2ccccc2C1(C)C (stereo not given) | -0.3 | -8 | -5.4 | 0.0 | 8 | -2.0 | 10 | 46
Cc1sc(NC(=O)CSc2nnnn2C(C)C)c(C#N)c1C | -1.1 | 4 | -0.2 | 0.6 | -10 | -1.0 | 3 | 1
Cc1ccc(S(=O)(=O)CCC(=O)Nc2nnc(CC(C)C)s2)cc1 | nt | -32 | -0.7 | 0.5 | -1 | ? | -32 | 31

(more compounds)
SMILES | LANA-H2B inh | Beta cell apopt | UCH37 inh | A1 inh | Beta2AR agonist | RanGTP-Impb inh | T cruzi repl | Calb FLC
C=CCN(C(=O)CNS(=O)(=O)c1ccccc1)C(C(=O)NCCOC)c1ccncc1 (stereo not given) | 0.2 | nt | 3.2 | 1.7 | 5 | 0.0 | 8 | 1
Cc1ccccc1CCN(C(=O)Cn1nnc2ccccc21)C(C(=O)NCC1CCCO1)c1nc2ccccc2n1C (stereo not given) | -0.9 | nt | 5.8 | 1.8 | -7 | 1.4 | 11 | -12
O=C(NCC(=O)N(c1ccccc1)C(C(=O)NC1CCCC1)c1cccnc1)c1cccs1 (stereo not given) | -3.2 | 1 | 4.3 | 0.7 | -7 | 1.4 | 8 | -4
Cn1cc(Cl)c(C(=O)Nc2nc3ccccc3s2)n1 | 4.1 | 8 | -0.5 | 0.2 | -9 | 0.4 | 33 | -12
O=C(COc1ccccc1Cl)Nc1ccc2c(c1)OCCO2 | 4.5 | -1 | 1.6 | -0.5 | -6 | 3.3 | -2 | 1
O=C(NNC(=O)c1ccc(NC(=O)c2ccccc2)cc1)Nc1ccccc1 | 4.8 | -3 | 0.8 | 0.3 | 0 | -1.9 | -9 | 16
CCC1(c2ccc(F)cc2)NC(=O)N(CC(=O)NC2CC2)C1=O (stereo not given) | 4.3 | nt | 2.7 | -0.5 | -9 | 0.7 | -1 | -2
Cc1cccc(C2CC(c3ccccc3)Nc3nc(N)nn32)c1 (stereo not given) | 3.4 | -8 | -6.1 | 0.3 | 6 | -3.8 | 12 | 3
COc1ccc(-c2cc(C(F)(F)F)nc(SCC(=O)Nc3sc4c(c3C#N)CCC4)n2)cc1 | 3.0 | 12 | -5.2 | 0.6 | -3 | -3.1 | 30 | -3
O=C(N/N=C/c1ccc(Br)s1)c1ccccn1 | 8.1 | 9 | nt | 0.2 | 0 | 1.8 | -2 | -13
Cc1csc2ncc(C(=O)NCCc3ccccc3)c(=O)n12 | 0.1 | -5 | -205 | 0.9 | -12 | 8.0 | 6 | -9
CC12CN(C(=O)c3ccccc3)C3(C#N)CC1CCC23C (stereo not given) | -0.6 | 13 | 2.1 | 0.2 | 2 | 0.8 | 2 | -3
C[C@@]12C(=O)N(CCc3c[nH]c4ccccc34)CC(=O)N1[C@H]1c3ccccc3OC[C@@H]1[C@@H]2c1ccccc1 | -2.2 | -9 | 5.0 | 0.9 | 3 | nt | nt | nt
NC(=O)c1ccc(-c2c(-c3ccccc3)sc3ccccc23)cc1 | -3.3 | 2 | 1.3 | 1.3 | -5 | nt | nt | nt
